MARV entry inh – Marburg virus entry inhibition; Marburg virus pseudotyped entry inhibition, cell reporter; control for the full effect not named in the record; about a third of the inactives were read at about 46 µM; Potency, µM (top dose mostly 37.8 µM), for inactives: top-dose activity change, negative = inhibition, most hits filed as inhibitors; hit rate 1.8% among 300,000; active = well fitted inhibition curve with a large enough effect; inconclusive = small, poorly fitted or top-dose-only effect, or effect the other way; inactive = flat fitted curve, though single readings scatter; tested in HEK293 cells; about a fifth of its hits are not listed in these tables; also: % is scaled to controls: 0 for no effect and ±100 for the full control effect; luciferase read-out
Cruzain Triton – blocks cruzain activity in presence of Triton detergent; AID 1478; hit rate 0.43% among 200,000; Potency, µM, for the others: max response, negative = inhibition, hits mostly inhibitors; purified cruzain, Z-FR-AMC fluorescence, 0.01% Triton; active = well fitted curve in the direction sought with a large enough effect; inconclusive = small, poorly fitted or top-dose-only effect, or another doubt; inactive = no such curve, though single readings can be large; an effect the other way counts as inactive or inconclusive;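 also: plate controls were neutral wells for no effect and buffer without enzyme for full effect; nearly all actives have a fitted effect of over 40% in size; top concentration of the series not given in the record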
Target sequence (P25779 123-467 limits assumed): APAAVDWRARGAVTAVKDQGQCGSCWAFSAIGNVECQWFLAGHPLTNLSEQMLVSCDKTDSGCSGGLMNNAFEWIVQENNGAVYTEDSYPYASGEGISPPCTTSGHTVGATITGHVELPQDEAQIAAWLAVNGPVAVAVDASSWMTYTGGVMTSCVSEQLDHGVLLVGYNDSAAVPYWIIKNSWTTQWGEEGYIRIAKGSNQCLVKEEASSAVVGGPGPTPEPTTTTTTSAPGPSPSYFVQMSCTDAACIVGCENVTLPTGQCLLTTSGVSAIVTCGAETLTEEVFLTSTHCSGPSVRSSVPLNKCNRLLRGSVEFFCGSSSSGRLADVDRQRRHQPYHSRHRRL
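15 min RT preincubation of 1.5 nM cruzain with compound, then 2 uM Z-FR-AMC added; kinetic AMC fluorescence, 60 s delta. Triton X-100 0.01%, pH 5.5.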
NS1 inh – influenza NS1 inhibition | Potency, µM (top dose mostly 46.1 µM), for the others: at the top dose activity, positive = more growth | S. cerevisiae slowed by influenza A NS1, growth recovery by OD600 | hit rate 0.4% among 270,000; also: actives are rising curves; nearly all actives have a fitted effect of over 50% in size
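Read-out: OD600 growth recovery of NS1-expressing budding yeast. Cells grown overnight at 30C in -URA glucose medium, washed, resuspended and diluted 1:100 in 2% galactose assay medium, pH 6.0. Same strain lacking NS1 served as positive control.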
SARS PLpro yeast – inhibitors of SARS-CoV papain-like protease in yeast | S. cerevisiae expressing SARS-CoV PLpro, growth rescue; control for the full effect not named in the record | Potency, µM (titrated, usually from 32.9 µM), without a hit: at the top dose activity, positive = growth rescue | hit rate 0.19% among 330,000; also: 0% is about no effect; nearly all actives have a fitted effect of over 55% in size; growth read by luminescence after 48 h
Lassa entry inh – Lassa virus entry inhibition; Lassa virus pseudotype entry inhibition, cell reporter; control for the full effect not named in the record; Potency, µM (top dose mostly 37.9 µM), inactives show at the highest dose activity change, negative = inhibition, most hits filed as inhibitors; hit rate 1.2% among 300,000; active means well fitted inhibition curve with a large enough effect; inconclusive means small, poorly fitted or top-dose-only effect, or effect the other way; inactive means flat fitted curve, though single readings scatter; tested in HEK293 cells; also: % is scaled to controls: 0 for no effect and ±100 for the full control effect; nearly all actives have a fitted effect of over 50% in size; luciferase read-out
RE007 growth inh – less growth of the S. pombe RE007 Vpr strain; hit rate 0.21% among 360,000; Potency, µM (series often up to 92.2 µM), inactives show at the highest dose activity change, negative = less growth; AID 651644; S. pombe RE007 Vpr strain, BacTiter-Glo ATP luminescence, 24 h; control for the full effect not named in the record; active = well fitted falling curve with a large enough effect; inconclusive = small, poorly fitted or top-dose-only effect; inactive = no such curve, though single readings can be large or run the other way;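 also: % is scaled to controls: 0 for no effect and ±100 for the full control effect; nearly all actives have a fitted effect of over 50% in size; the assay follows cell death caused by Vpr and the record does not say whether a fall means rescue or toxicity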
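Fission yeast RE007 carrying one integrated HIV-1 vpr copy, seeded at OD 0.01 in PMG+AL medium with 23 nL pinned compound. Grown 24 h at 30 degrees; viability read by BacTiter-Glo luminescence after 5 min.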
StopGo reporter – FMDV 2A StopGo reporter, luciferase signal. hit rate 1.2% among 410,000. Potency, µM (highest dose often 57.9 µM), inactives show at the highest dose signal change, negative = less light. human cells with a luciferase reporter of 2A StopGo recoding; control for the full effect not named in the record; active = well fitted falling curve with a large enough effect; inconclusive = small, poorly fitted or top-dose-only effect; inactive = no such curve, though single readings can be large or run the other way; tested in HEK293T cells; also: % is scaled to controls: 0 for no effect and ±100 for the full control effect; nearly all actives have a fitted effect of over 45% in size; luciferase light after 4 h
Cruzain inh noDet – inhibitors of Trypanosoma cruzi cruzain without detergent; P25779; purified cruzain, Z-FR-AMC fluorescence, no detergent; Potency, µM, for inactives: max response, negative = inhibition, most hits filed as inhibitors; hit rate 2.3% among 200,000; AID 1476; active = well fitted curve in the direction sought with a large enough effect; inconclusive = small, poorly fitted or top-dose-only effect, or another doubt; inactive = no such curve, though single readings can be large; an effect the other way counts as inactive or inconclusive;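 also: plate controls were enzyme without inhibitor for no effect and buffer without enzyme for full effect; nearly all actives have a fitted effect of over 40% in size; top concentration of the series not given in the record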
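Purified cruzain at 1.5 nM, pre-incubated 15 min with compound at room temperature in 100 mM sodium acetate pH 5.5, 5 mM DTT, 0.00005% Triton X-100. Reaction started with 2 uM Z-FR-AMC; AMC fluorescence increase over 60 s gives rate.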
* = called active by the depositor; ? = inconclusive; / = no result given; & = joins results of further samples; [ ] = another dose, or the depositor's remark. Unless noted, calls follow the shape of the dose curve; as a rule, active means well fitted rising curve with a large enough effect; inconclusive means small, poorly fitted or top-dose-only effect; inactive means no such curve, though single readings can be large or run the other way. Potency is read from the fitted curve at half-maximal effect.

SMILES	MARV entry inh	Cruzain Triton	NS1 inh	SARS PLpro yeast	Lassa entry inh	RE007 growth inh	StopGo reporter	Cruzain inh noDet
Cc1ccc(NS(=O)(=O)c2cccc(C(=O)N(C)Cc3cccs3)c2)cc1	?	/	/	2.1%	-11.6%	-10.4%	-6.9%	/
CCOC(=O)N1CCN(c2c(N3CCc4ccccc43)c(=O)c2=O)CC1	/	-11.1%	-4.7%	5.7%	/	-14.9%	-8.7%	-0.3%
COc1ccc(CN2CC(C(=O)NCCc3ccccc3)CC2=O)cc1 (stereo not drawn)	7.0%	1.2%	6.4%	-3.3%	-0.6%	-8.0%	9.9%	-0.8%
Cc1c(NC(=O)c2cnc(Cl)c(Cl)c2)c(=O)n(-c2ccccc2)n1C	0.1%[46.1 µM]	/	-1.4%	-4.2%	-26.4%[46.1 µM]	-1.6%	-3.0%	/
Cn1c(=O)oc2cc(S(=O)(=O)NC(CC(=O)O)c3cccc(Br)c3)ccc21 (stereo not drawn)	/	-1.0%	/	/	4.2%[46.1 µM]	/	-0.2%	6.5%
O=C(CCC(=O)Nc1ccccc1)NCCO	8.1%	1.6%	5.2%	5.1%	-5.0%	15.2%	-24.7%	-0.5%
O=C(/C=C/c1ccc(F)cc1)NC(=S)N1C[C@H]2C[C@H](C1)c1cccc(=O)n1C2	/	/	-12.1%	-11.4%	/	-8.1%	-6.0%	/
CCCCC(=O)Nc1ccc(Br)cc1C(=O)O	-10.4%	1.1%	-4.7%	0.0%	-23.0%	-8.6%	-12.4%	0.1%
CCCCCCCc1nc2c(=O)n(C)c3ccccc3c2o1	-14.7%	-6.0%	-1.1%	-4.0%	8.4%	-2.4%[3.69 µM]	-7.8%	4.8%
O=C(c1ccco1)N1CCN(c2ncnc3c(-c4ccc(Cl)cc4)nsc23)CC1	?	/	-2.7%	-0.6%	10.6%[46.1 µM]	3.9%	?	/
CN(CC(=O)Nc1ccc(Cl)c(C(F)(F)F)c1)C(=O)C1CC(=O)N(Cc2ccco2)C1 (stereo not drawn)	15.9%[46.1 µM]	/	/	-8.8%	-1.0%	-0.9%	-5.0%	/
CC(C)(C)C1CCC(C(=O)Nc2nccs2)CC1 (stereo not drawn)	/	/	4.2%	6.8%	/	-8.4%	41.4%[activator]	/
CCS(=O)(=O)C1=NN2C(=N)/C(=C\c3ccc(OCCOc4cccc(OC)c4)c(OC)c3)C(=O)N=C2S1	/	/	14.9%	2.3%	/	5.3%	-25.0%	/
CCOC(=O)c1cc(S(=O)(=O)Nc2ccccc2)[nH]n1	/	1.9%	/	/	?	/	29.5%	5.9%
CCOc1ccc(C(=O)Nc2cc3c(cc2N2CCCC2)n(C)c(=O)c(=O)n3C)cc1OCC	-2.2%[46.1 µM]	-8.5%	/	/	-9.2%[46.1 µM]	/	-22.0%	6.7%
C/C(=N\NC(=O)c1cc2ccccc2cc1O)c1ccc2c(c1)OCO2	6.2%	-7.0%	7.9%	-6.4%	5.8%	-10.6%	-28.3%	-15.4%
CN(C1=NC(=O)CS1)c1ccc(O)cc1	-0.5%[46.1 µM]	/	6.4%	0.8%	-3.7%	9.7%	1.7%	/
COc1cccc(-n2nnnc2SCC(=O)Nc2ccc3c(c2)OCCO3)c1	?	6.0%	2.6%	-5.2%	-29.8%	8.6%	?	-6.0%
COCCNC(=O)c1ccc(CN2CCc3ccccc3C2)cc1	-0.1%	-2.4%	4.0%	9.5%	2.2%	2.8%	-5.0%	11.9%
Cc1cc2c(=O)n(C)c(SCC(=O)NCC3CCCO3)nc2s1 (stereo not drawn)	4.6%[46.1 µM]	/	/	/	1.9%	-3.9%	0.7%	/
Cc1onc(-c2c(F)cccc2Cl)c1C(=O)NCCCN1CCOCC1	-5.6%	4.5%	4.5%	-1.6%	12.6%	-16.6%	-7.2%	-2.6%
O=C(COC(=O)CCc1ccccc1)Nc1ncc(Cl)cc1Cl	8.9%	0.5%	0.1%	2.1%	1.0%	-5.9%	9.4%	-3.4%
CN(C)CCNc1ncnc2c1sc1nc(N3CCCC3)c3c(c12)CC(C)(C)OC3	7.94µM*	/	1.2%	-0.1%	?	1.3%	?	/
CCOc1ccc(C(=O)Nc2cccc(-c3nc4ccccc4[nH]3)c2C)cc1[N+](=O)[O-]	-3.3%	-5.5%	9.9%	-2.0%	-3.7%	12.1%	0.0%	?
CCc1c(C)sc(NC(=O)Cc2ccccc2C)c1C(=O)N1CCOCC1	-4.8%	/	3.6%	-5.2%	6.7%	19.7%	13.3%	/
COCCN(C(=O)COC(=O)c1ccc2c(c1)OCCO2)c1c(N)n(Cc2ccccc2)c(=O)[nH]c1=O	0.7%[46.1 µM]	/	/	2.5%	16.5%	2.5%	-22.7%	/
CCCCN(C)C(=O)C(Cc1ccccc1)NS(=O)(=O)c1ccc2c(c1)c(=O)n(C)c(=O)n2C (stereo not drawn)	?	1.1%&-0.4%	11.7%	-4.6%	-5.6%[46.1 µM]	-13.2%	-19.0%&-23.1%	-3.8%&28.8%
Nc1c2c(nc3ccccc13)CCC2	?	-1.0%	-3.3%	-12.6%	5.9%	-0.6%	-17.3%	11.5%
Cc1sc2ncn(CC(=O)NCCCC(=O)N3CCN(c4ccccn4)CC3)c(=O)c2c1C	-3.0%	3.2%	-6.3%	2.2%	15.5%	-3.5%	-16.9%	3.5%
CCOC(=O)CC(=O)CSc1ncnc2c1oc1ccccc12	?	-3.7%	?	-3.9%	2.0%	0.9%	6.7%	-2.5%
CC(C)(C)OC(=O)N[C@@H](COCc1ccccc1)C(=O)N[C@@H](CO)[C@H](O)[C@@H]1C[C@@H]1C(=O)NC1CC1	/	/	-3.6%	-6.2%	/	-10.9%	-12.7%	/
CCC(C)(C)NC(=O)C(c1ccc(OC)cc1)N(C(=O)CCC(=O)Nc1cc(C)on1)C1CC1 (stereo not drawn)	-9.6%[46.1 µM]	/	5.4%	1.2%	-1.9%	11.1%	-9.5%	/
COc1ccc(NC(=O)c2sc3nc(C)nc(N4CCOCC4)c3c2C)c(OC)c1	11.5%[46.1 µM]	/	/	0.8%	-13.1%	-2.6%	-17.3%	/
CCOC(=O)c1nnsc1NC(C)=O	0.5%	3.8%	11.4%	-3.2%	10.8%	-2.6%	-7.9%	-4.3%
CC(Nc1ccccc1CO)C(=O)Nc1cccc(Cl)c1Cl (stereo not drawn)	?	/	/	0.2%	?	6.8%	-15.8%	/
COc1ccc(S(=O)(=O)Nc2c(O)ccc3ccccc23)cc1OC	?	/	/	/	?	-7.6%	85.1%[activator]	/
CC1(C2CCCC2)NC(=O)NC1=O (stereo not drawn)	5.4%	/	/	/	19.2%	11.7%	-9.0%	/
OC(c1cccc(OCc2ccccc2)c1)c1nnc(-c2ccccc2)o1 (stereo not drawn)	-22.3%	-5.5%	-43.8%	-19.9%	?	?	?	3.7%
CCCCCCCCS(=O)C1CS(=O)(=O)CC1O (stereo not drawn)	/	/	0.2%	0.9%	/	6.3%	-3.2%	/
CC(=O)Nc1cccc(-c2nnc3n2CC(C)S3)c1 (stereo not drawn)	9.8%	3.9%	2.0%	-5.1%	15.7%	-17.3%	/	-13.0%
O=C(CC(c1ccccc1)c1ccccc1)Nc1ncn[nH]1	1.4%	-3.2%	2.6%	-7.3%	0.4%	-1.7%	-12.6%	4.9%
COc1cccc(N(C(=O)Cn2nnc(-c3ccc(Cl)cc3)n2)C(C(=O)NCC2CCCO2)c2ccc(C)cc2)c1 (stereo not drawn)	/	/	3.7%	0.5%	/	2.4%	-4.5%	/
CCn1cc(C(=O)N2CCCC2)c(=O)c2cc(S(=O)(=O)N3CCOCC3)ccc21	8.6%	0.9%	2.7%	3.3%	-1.1%	-13.1%	-2.6%	-7.6%
COc1cc2c(=O)n(Cc3ccccc3)c(=O)n(CC(=O)NCc3ccco3)c2cc1OC	-20.9%	7.3%	-3.2%	-1.1%	-5.1%	-9.8%	-21.1%	?
COc1ccc(NC(=O)[C@@H](NC(=O)N2C[C@H]3C[C@@H](C2)c2cccc(=O)n2C3)C(C)C)cc1	/	/	0.6%	-2.9%	/	6.7%	4.5%	/

Overlap with the part before: 2 entries, then new ones.
SMILES	MARV entry inh	Cruzain Triton	NS1 inh	SARS PLpro yeast	Lassa entry inh	RE007 growth inh	StopGo reporter	Cruzain inh noDet
COc1cc2c(=O)n(Cc3ccccc3)c(=O)n(CC(=O)NCc3ccco3)c2cc1OC	-20.9%	7.3%	-3.2%	-1.1%	-5.1%	-9.8%	-21.1%	?
COc1ccc(NC(=O)[C@@H](NC(=O)N2C[C@H]3C[C@@H](C2)c2cccc(=O)n2C3)C(C)C)cc1	/	/	0.6%	-2.9%	/	6.7%	4.5%	/
CCCCCC(=O)NN1C(=S)N(c2ccc(OC)cc2)C(=O)C1CC(=O)Nc1ccccc1 (stereo not drawn)	-1.0%	/	0.5%	0.9%	-1.2%	10.2%	-15.8%	/
Cc1ccc(C(=O)c2sc3c(c2N)c(=O)[nH]c(=O)n3CCc2ccccc2)cc1	-14.4%	-14.7%	23.8%	15.3%	?	-4.2%	?	12.6µM*
Cc1cccc(NC(=O)c2sc(-n3nc(C)c(CCC(C)C)c3C)nc2C)c1	12.4%[46.1 µM]	-0.7%	/	/	-2.1%[46.1 µM]	/	-13.5%	5.4%
CC(C)COC(=S)Nc1ccccc1	-3.5%	-2.5%	6.5%	27.7%	?	-12.2%	10.4%	-4.2%
CC(C)c1ccccc1-n1c(SCC(=O)N2CCc3ccccc3C2)nc2ccccc2c1=O	?	4.8%	22.4µM*	27.8%	?	8.3%	?	?
COC(=O)C(Cc1ccccc1)NC(=O)c1cc(S(=O)(=O)N(C)C)ccc1Cl (stereo not drawn)	-1.3%	/	-3.4%	2.7%	15.6%	11.3%	-2.3%	/
Cc1ccc(C(=O)COC(=O)CN2C(=O)C3C4C=CC(C4)C3C2=O)cc1C (stereo not drawn)	/	/	0.9%	-5.4%	/	-12.9%	-2.7%	/
S=C(NCc1ccccc1)Nc1ccc(Oc2ccccc2)cc1	/	/	?	-3.9%	/	13.3%	6.6%	/

High-throughput results: PubChem BioAssay, National Center for Advancing Translational Sciences (NCATS)
